Bioassay records deposited in PubChem by several laboratories.
Sa ugtP lethal: kills S. aureus RN4220 lacking UgtP. S. aureus RN4220 ugtP deletion, OD600 growth, 16 h; some inactives read as strong as hits. growth inhibition, % (test concentration not listed). actives 0.54% (n = 330,000). AID 1259309;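 active = z-score under -3 and OD600 up to 0.15 on both plates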;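 note: plate controls were untreated wells for no effect and antibiotic for full effect; wells of about 80 µL received 100 nL stock; the first replicate is given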
BJeLR lethal: kills HRASV12-expressing BJeLR cells; BJeLR (HRASV12) viability, CellTiter-Glo ATP luminescence, 48 h; reference of the scale not given here; inhibition, % (test concentration not listed); actives 0.17% (n = 300,000); AID 1554;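 active = replicate mean above 50%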;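 note: 50 nL library stock added to about 25 µL; numbers are from one replicate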
Mtb hypoxia rep: Mtb hypoxia fluorescent reporter inhibition; M. tuberculosis hypoxia-regulated fluorescent reporter, fluorescence; fluorescence inhibition, % (test concentration not listed); actives 0.1% (n = 300,000); AID 1159583;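 active = 35 to 45% if threefold the growth effect, above 45% if 1.5-fold the growth effect; inactive = the rest, general growth blockers included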;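 note: wells of about 50 µL received 100 nL stock; 0% = vehicle wells and 100% = reference inhibitor wells; whole bacteria with a GFP reporter of the hypoxia response; strong numbers were not always called active; many hits fall short of the cut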
Bead autofluor: compound fluorescence in toxin protease inhibitor counterscreen; compound autofluorescence counterscreen, microsphere flow cytometry; active compounds read high; fluorescence intensity (concentration not given with the values); actives 3.1% (n = 360,000);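 active = at least 3 SD above the mean of all compounds, about 16000 in these data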;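 note: 100 nL of 1 mM stock went into each well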
PrP UTR inh: suppresses PrP 5' UTR mRNA reporter expression | cell-based PrP 5' UTR mRNA reporter, plate reader | inhibition, % (test concentration not listed) | actives 0.35% (n = 340,000);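 active = every replicate at 50% or more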;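 note: 0 = median of the neutral control wells; tested in H4 reporter cells; numbers are from one replicate; inactives centre near -14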
Sa RN4220 lethal: S. aureus RN4220 growth inhibition | inhibition, % (no concentration beside the values) | OD600, 16 h | actives 0.33% (n = 330,000);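 active = z-score of -3 or lower and OD600 up to 0.18 on both plates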;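 note: plate controls were untreated cells for no effect and reference antibiotic for full effect; stock transfer was 100 nL into about 80 µL; one replicate is shown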
Mtb hypoxia rep growth: second read-out of Mtb hypoxia rep, no call of its own (marks repeat the call); growth inhibition, %; measured here: M. tuberculosis growth (absorbance);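 0% = vehicle and 100% = reference antibiotic; read after six days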
* marks the source's active call; other numbers are inactive results; · = not tested or not shown.

SMILES	Sa ugtP lethal	BJeLR lethal	Mtb hypoxia rep	Mtb hypoxia rep growth	Bead autofluor	PrP UTR inh	Sa RN4220 lethal
Cc1c(O)ccc2c(-c3ccccc3)cc(=O)oc12	-8.7	2.1	8.1	0.6	3795	-5.4	6.0
Cc1cc(=O)[nH]c(SCC(=O)Nc2ccc(F)c([N+](=O)[O-])c2)n1	3.4	10.3	-3.6	-1.2	4232	-11.8	3.8
COc1ccc(-n2c(=O)c3ccccc3n(CC(=O)NC3CCCC3)c2=O)cc1	15.9	3.6	·	·	2603	-1.9	0.1
CCCN1CCN(CC(=O)Nc2nnc(CC)s2)CC1	1.2	-3.4	-1.7	15.2	3507	-3.7	-1.5
COC(=O)[C@@]12CCCN1[C@H](c1ccc(-c3cccc(Cl)c3)c(OC)c1)[C@H]1C(=O)N(C)C(=O)[C@H]12	·	-8.5	·	·	3860	-19.4	·
COc1ccc(Nc2cc(Nc3ccc(OC)cc3)ncn2)cc1	7.6	1.3	-4.3	1.8	4133	9.7	-1.0
CC(=O)N1CCN(c2ccc(NC(=S)NC(=O)COc3ccc(C(C)(C)C)cc3)cc2)CC1	68.4	14.6	15.8	9.3	2657	-28.3	1.5
Cc1ccnc(NC(=O)C(C)n2cc([N+](=O)[O-])cn2)c1 (stereo not given)	10.4	2.7	-9.1	-6.3	3486	-9.5	16.9
Cc1cc(=O)n2nc(N3CCC(C(=O)NCc4ccccc4F)CC3)sc2n1	10.5	1.9	-8.6	7.1	5936	-17.5	6.1
Cc1cc(C)c2ccc3c(C)c(C)n(C)c3c2n1	1.4	3.1	10.2	-3.5	4673	-6.7	13.1
COc1ccc(N=NC2=C(O)CC(C)(C)CC2=O)c(OC)c1	-0.4	-2.5	17.9	5.7	9291	-8.1	1.5
CCOC(=O)c1sc(=NC(=O)c2ccccc2)n(C)c1C	4.3	8.2	-1.9	-16.5	3908	-76.9	2.7
CC1=NN(C2=NS(=O)(=O)c3ccccc32)C(C)(O)C1 (stereo not given)	-0.4	-0.8	10.8	2.3	3984	-32.8	-0.5
C=CCn1c(C(C)(C)C)nc2ccccc21	6.1	-0.6	19.9	6.4	4379	-7.7	5.5
Cn1c(=O)c2c(nc(Sc3ccccc3N)n2C)n(C)c1=O	0.7	-0.1	6.9	-4.1	4401	-16.8	0.0
O=C(NC1CCSc2ccccc21)c1ccc(C(F)(F)F)cc1 (stereo not given)	3.0	1.6	25.5	17.1	5341	-18.2	1.9
CCN(C(=O)c1ccc(S(=O)(=O)N(C)C)cc1)C(C)C(=O)Nc1ccc(C)cc1 (stereo not given)	4.6	9.2	-9.2	-3.5	3844	4.8	3.7
Cc1noc(C)c1COC(=O)c1cccnc1SCC(=O)Nc1ccc2c(c1)OCO2	2.7	-15.2	4.5	7.3	4619	-19.9	-3.6
O=C(O)C(F)(F)S(=O)(=O)O	-4.7	-14.4	5.6	6.8	10354	-11.0	4.0
Cc1ccc(S(=O)(=O)CCC(=O)OCc2nnc(-c3ccccc3Br)o2)cc1	8.4	·	1.1	-1.8	3104	-17.3	6.8
Cc1cccc(NC(=O)C2CCN(S(=O)(=O)c3cccc4nsnc34)CC2)c1	6.1	-5.5	8.1	-1.2	4671	-1.0	-0.1
COc1ccc(NC(=O)c2oc3cc(C)c(C)cc3c2C)c(OC)c1	13.0	4.1	·	·	4751	-18.9	1.5
CC(CCc1ccccc1)NC(=O)CSc1ccccc1 (stereo not given)	-0.7	-1.8	11.3	5.2	1961	-11.8	-4.0
CC(C)CCn1nnnc1C(c1ccc(F)cc1)N1CCN(C(=O)c2ccco2)CC1 (stereo not given)	5.7	-3.2	·	·	4140	-17.9	1.0
O=C(NCC#CCSc1nnc(-c2cccc3ccccc23)o1)c1cccs1	-3.0	·	1.7	-1.3	·	·	3.2

Just Sa ugtP lethal and Mtb hypoxia rep growth, for some of the entries so far:
SMILES	Sa ugtP lethal	Mtb hypoxia rep growth
CC(CCc1ccccc1)NC(=O)CSc1ccccc1 (stereo not given)	-0.7	5.2
CC(C)CCn1nnnc1C(c1ccc(F)cc1)N1CCN(C(=O)c2ccco2)CC1 (stereo not given)	5.7	·

Complete entries as entered above. Order of screens: Sa ugtP lethal	BJeLR lethal	Mtb hypoxia rep	Mtb hypoxia rep growth	Bead autofluor	PrP UTR inh	Sa RN4220 lethal
Cn1c(=O)c2c(nc(Sc3ccccc3N)n2C)n(C)c1=O as listed: 0.7	-0.1	6.9	-4.1	4401	-16.8	0.0
Cc1c(O)ccc2c(-c3ccccc3)cc(=O)oc12 as listed: -8.7	2.1	8.1	0.6	3795	-5.4	6.0
CC(C)CCn1nnnc1C(c1ccc(F)cc1)N1CCN(C(=O)c2ccco2)CC1 (stereo not given) as listed: 5.7	-3.2	·	·	4140	-17.9	1.0
COc1ccc(Nc2cc(Nc3ccc(OC)cc3)ncn2)cc1 as listed: 7.6	1.3	-4.3	1.8	4133	9.7	-1.0
COc1ccc(N=NC2=C(O)CC(C)(C)CC2=O)c(OC)c1 as listed: -0.4	-2.5	17.9	5.7	9291	-8.1	1.5

Later entries.
SMILES	Sa ugtP lethal	BJeLR lethal	Mtb hypoxia rep	Mtb hypoxia rep growth	Bead autofluor	PrP UTR inh	Sa RN4220 lethal
Cc1csc(SCC(=O)NC(C)c2ccc(F)cc2)n1 (stereo not given)	3.9	1.7	17.9	10.8	4274	-18.2	2.4
CCN1CCN(c2cc(C)c3cc(NC(=O)Cc4ccccc4OC)ccc3n2)CC1	4.1	-2.7	8.8	4.5	4308	-12.4	-0.3
Nn1cc(-c2ccccc2)nc1SCC(=O)NCCc1ccccc1	1.3	-10.4	-4.0	10.8	3220	-101.7	-4.3
CC1CC(C)CN(C(=O)c2ccc(NC(=O)c3ccc(=O)[nH]c3)cc2)C1 (stereo not given)	10.1	8.2	7.7	12.8	4152	0.1	0.3
COc1ccc(C=NNC(=O)CCn2c3ccccc3c3ccccc32)cc1OC	-8.4	·	4.0	-12.0	·	·	2.0
Fc1ccc2c(c1)C1C=CCC1C(c1cc3c(cc1Br)OCO3)N2 (stereo not given)	42.9	-8.3	6.2	1.1	19890*	-37.5	-17.7
CCOC(=O)N1CCN(C(=O)C2CCN(S(=O)(=O)c3ccc(OC)cc3)CC2)CC1	1.2	4.9	1.1	5.5	4495	-50.6	-0.2
NC(=S)NN=Cc1ccc(-c2ccc(SC(F)F)cc2)o1	-13.5	·	·	·	·	·	13.4
CCOc1ccc(S(=O)(=O)N(CC)CC(=O)N2CCCC2)cc1	1.4	-3.1	6.6	11.9	3485	-10.1	1.6
CN(C)C(=O)CSc1nnc(CCNC(=O)OC(C)(C)C)o1	2.0	6.3	1.5	7.6	22750*	-14.0	1.5
CCOC(=O)NC(=O)CN1C(=O)NC2(CCc3ccccc32)C1=O (stereo not given)	6.1	-0.2	-4.2	-0.3	3791	-8.4	-1.3
O=C(CNS(=O)(=O)/C=C/c1ccccc1)OC1CCOC1=O (stereo not given)	1.2	-3.4	0.1	-3.3	3444	-18.4	0.7
CN1CCN(c2oc(-c3ccccc3)nc2S(=O)(=O)c2ccc(Br)cc2)CC1	1.9	-5.5	8.7	7.3	5870	-12.2	-0.9
COc1cc(/C=N/NC(=O)CCn2nnc3ccccc32)ccc1O	·	-0.4	·	·	2589	-7.8	·
CCN(CC)c1ccc(N=Cc2c(O)n(-c3ccccc3)c(=O)[nH]c2=O)cc1	7.9	-7.0	5.6	12.6	4485	-11.0	5.2
Cn1c(SCC(=O)Nc2ccc(Cl)cc2)nc(O)cc1=O	1.0	-5.0	9.9	1.5	4354	-25.5	1.2
CCN(CC)S(=O)(=O)c1ccc(N2CCOCC2)c(NC(=O)c2[nH]c(C)c(C(C)=O)c2C)c1	-3.9	·	-4.4	-1.3	·	-8.7	5.4
CC(OC(=O)c1cn(C)c2ccccc12)C(=O)N(C)c1ccccc1 (stereo not given)	5.8	·	7.0	-0.5	6529	-25.8	6.3
COc1ccccc1-c1nnc(SCCN2CCOCC2)n1-c1ccc(C)cc1	0.7	3.7	9.2	11.0	8877	-22.6	8.3
O=C(C1=C[C@@H](c2ccc(Br)cc2)C[C@@H](OCCCCO)O1)N1CCN(Cc2ccccc2)CC1	·	8.9	·	·	3997	-12.5	·
CSc1nc2sc3c(c2c2nnnn12)CCCC3	14.8	-7.9	1.4	5.5	15328	-13.4	6.4
O=C(NC(=S)Nn1cnc2c(cnn2-c2ccccc2)c1=O)c1ccccc1	-14.4	7.4	-4.9	-5.3	2085	-23.3	11.4
CC1CC(=O)Nc2ccccc2N1S(=O)(=O)c1ccc(Cl)cc1 (stereo not given)	8.3	-5.6	3.7	-4.1	6212	-9.9	-1.6
Cc1ccc(NS(=O)(=O)c2ccc(OCC(=O)N3CCN(C)CC3)cc2)cc1	9.6	-1.8	1.8	4.4	3705	-0.9	4.2
COc1cccc(C2=CC(c3cc(OC)ccc3OC)n3nnnc3N2)c1 (stereo not given)	2.5	-3.6	2.7	6.1	2587	-23.7	8.9
Next part.
SMILES	Sa ugtP lethal	BJeLR lethal	Mtb hypoxia rep	Mtb hypoxia rep growth	Bead autofluor	PrP UTR inh	Sa RN4220 lethal
Cc1nn(CC(=O)OCC(=O)NC(C)c2ccccc2)c(C)c1[N+](=O)[O-] (stereo not given)	3.5	6.2	-3.4	-6.5	2391	-13.2	1.1
C=CCn1c(CCNC(=O)c2cccs2)nnc1SCC(=O)Nc1cccc(F)c1	-3.9	1.9	8.1	8.2	17039*	-36.6	1.1
Nc1nnc(SCCCOc2ccc(F)cc2)s1	17.8	7.2	5.6	2.4	4327	-17.9	5.4
CCCC1SCC(C)(C)NC1=O (stereo not given)	5.0	·	7.5	3.8	4025	-15.4	0.3
C/C(=N\OC(=O)c1ccc(F)cc1)c1nccs1	·	2.4	·	·	23617*	-24.4	·
COc1cccc2sc(NN)nc12	9.6	2.1	13.8	9.0	3402	-20.4	0.6
Cc1ccc(NCC(=O)c2ccc([N+](=O)[O-])cc2)cc1	3.2	·	-4.8	-7.7	4642	-31.6	7.6
Nc1cc(C(=O)c2ccccc2)ccc1N1CCOCC1	10.2	0.8	·	·	4621	-35.6	-1.1
COc1cc(NC(C(=O)Nc2cccc(C(C)=O)c2)c2ccccc2)cc(OC)c1OC (stereo not given)	1.2	-13.4	1.9	0.6	1811	3.9	-1.6
Cc1ccccc1NC(=O)c1ccccc1	2.8	-5.3	-12.3	1.3	4386	-11.2	1.3
CCc1c(C)nc2ncnn2c1N1CCCC(C(=O)NCCc2ccccc2)C1 (stereo not given)	8.1	-7.3	9.8	11.5	11260	-14.8	5.0
COc1ccc(OC)c(C2=NO[C@@](CC(=O)O)(C(=O)Nc3ccc4c(c3)OCCO4)C2)c1	-1.0	-17.7	-0.4	-0.1	3130	-15.5	-2.8
Cc1cc(C)cc(N(C(=O)c2csnn2)C(C(=O)NC(C)(C)C)c2cccs2)c1 (stereo not given)	-4.5	8.4	5.6	1.3	11245	-9.6	7.1
CS(=O)(=O)c1ccc(C(=O)OCC(=O)Nc2cccnc2Cl)cc1[N+](=O)[O-]	3.0	·	6.3	13.3	3909	-9.6	0.5
O=C(CNc1cccc(C(F)(F)F)c1)N/N=C/c1cccc(Br)c1	·	-10.1	·	·	2665	-12.2	·
O=C(CCNC(=O)C1CCN(S(=O)(=O)c2ccccc2)CC1)NCc1ccccn1	-3.9	1.8	8.3	-7.8	4554	1.1	0.0
O=C(NNC(=O)c1cc(-c2ccncc2)nc2ccccc12)c1cccc(Cl)c1	1.4	3.7	-6.4	4.9	5917	-14.3	6.4
